From PubChem BioAssay
HSD17B inhib: inhibitors of human HSD17B10 dehydrogenase; AID 893; Potency, µM (top dose mostly 57.1 µM), for inactives: at the top dose activity change, negative = inhibition, hits mostly inhibitors; Q99714; recombinant HSD17B10, NADH fluorescence kinetic; many of its hits are not listed in these tables; 7.6% of 75,000 active; active = well fitted inhibition curve with a large enough effect; inconclusive = small, poorly fitted or top-dose-only effect; inactive = no such curve, though single readings can be large or run the other way;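 also: the protocol describes HADH2 (HSD17B10) and not the HSD17B4 of the title; nearly all actives have a fitted effect of over 70% in size; most hits overshoot -100% by far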
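Activity followed as NADH fluorescence increase (ex 360, em 450 nm) every 30 seconds for 4 min, using final 90 uM beta-hydroxybutyryl CoA and 1 mM NAD+. Recombinant His-tagged enzyme, 20 nM, pH 9.0 Tris buffer, 15 min compound preincubation.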
* hit, by the source's call; ? = inconclusive; & = joins results of further samples; [ ] = another dose, or the depositor's remark. % is scaled to controls: 0 for no effect and ±100 for the full control effect; potency is read from the fitted curve at half-maximal effect. Not all compounds are listed; count on the stated rates, not on these rows.

SMILES	HSD17B inhib
COC(=O)[C@]1(C)CC[C@@]2(C)CC[C@@]3(C)C4=CCc5c(cc(O)c(O)c5C)[C@]4(C)CC[C@@]3(C)C2C1 (some centres undefined)	-9%
COc1cccc2c1cc([N+](=O)[O-])c1c(C(=O)O)cc3c(c12)OCO3	-8%&0%
CC(=O)O[C@H]1CC[C@H]2[C@@H]3CCC4=C[C@@H](C5SCCS5)[C@H](OC(C)=O)C[C@]4(C)[C@H]3CC[C@@]12C	6%[11.4 µM]
O=S1(=O)CC2(N3CCOCC3)CCCCC21 (centres undefined)	4%
O=P(OCC(F)(F)C(F)F)(N1CCCCC1)N1CCCCC1	-2%
Nc1ncc([N+](=O)[O-])s1	-11%
CCC(C)(C)c1ccc(O)cc1	-4%
CCOC(=O)C1CCN(/C=C2/C(=O)NC(=O)N(c3ccc(OCC)cc3)C2=O)CC1	1%
Cc1cc(OC(=O)N2CCCCC2)c(C(C)C)cc1[N+](C)(C)C	-1%
NS(=O)(=O)C[C-]1C=C[CH]([Sb-]([Cl])([Cl])([Cl])([Cl])[Cl])C=C1.c1ccncc1 (centres undefined)	1%[11.4 µM]
Clc1ccc([C@@H](OCCN2CCCCC2)c2ccccc2)cc1	0%[25.6 µM]
CCSCC[C@H](N)C(=O)O	-1%[11.4 µM]
CCC(Cl)[N+](=O)[O-] (centres undefined)	3%
Nc1ccc(N2CCN(Cc3ccccc3Cl)CC2)c(Cl)c1	-13%
CCC1(CC)C(=O)NC(=Nc2cccc(C(F)(F)F)c2)NC1=O	6%
Cc1ccccc1-c1cncnc1NCCc1cnc[nH]1	-7%
CCC1(C)CC(=O)NC(=O)C1	-1%[25.6 µM]
COc1cc(CN2CC3CC(C2)c2cccc(=O)n2C3)cc(OC)c1OC (centres undefined)	2%
Cc1ccc(S(=O)(=O)N[C@@H](CCCCN)C(=O)CCl)cc1	5%
NCCCP(=O)(O)CC1CCCCC1	3%

Grouped by structure, the compounds so far with a Cl atom.
SMILES	HSD17B inhib
NS(=O)(=O)C[C-]1C=C[CH]([Sb-]([Cl])([Cl])([Cl])([Cl])[Cl])C=C1.c1ccncc1 (centres undefined)	1%[11.4 µM]
Clc1ccc([C@@H](OCCN2CCCCC2)c2ccccc2)cc1	0%[25.6 µM]
CCC(Cl)[N+](=O)[O-] (centres undefined)	3%
Nc1ccc(N2CCN(Cc3ccccc3Cl)CC2)c(Cl)c1	-13%
Cc1ccc(S(=O)(=O)N[C@@H](CCCCN)C(=O)CCl)cc1	5%

(more compounds)
SMILES	HSD17B inhib
CN1C[C@@H](CO)C=C2c3cccc4[nH]cc(c34)CC21 (some centres undefined)	10µM*
NC(=NCCCC(N)C(=O)O)N[N+](=O)[O-] (centres undefined)	1%
N#CCBr	0%
Cn1c(=O)cc(OCC(=O)N2CCC3(CC2)OCCO3)c2ccccc21	-11%
CNC(Cc1c[nH]c2ccccc12)C(=O)O (centres undefined)	-3%
Clc1cccc2ccccc12	3%
C=CC(=O)OCC	8%
c1ccc(OP(Oc2ccccc2)Oc2ccccc2)cc1	-3%
O=C(O)CNC(=O)c1ccc([As](=O)(O)O)cc1	1%[11.4 µM]
CCBr	1%
Clc1ccc(N2C[C@H]3CC[C@@H](C2)N3)nn1	2%
CCOC(=O)C1C2c3ccccc3O[C@@]1(C)N=C1SCC(=O)N12 (some centres undefined)	4%
O=C(/C=C\c1ccc(Cl)cc1)N[C@@]12CCC(=O)[C@@H]3Oc4c(O)ccc5c4[C@@]31CCN(CC1CC1)[C@@H]2C5	-7%
N#Cc1ccccc1Cn1cc(C(=O)c2cccs2)c2ccccc21	9%
N#Cc1c(/N=C/c2c(O)n(Cc3ccco3)c(=O)[nH]c2=O)sc2c1CCCC2	?
CC(C)(O)[C@@H]1[C@H]2OC(=O)[C@@H]1[C@]1(O)C[C@H]3O[C@]34C(=O)O[C@H]2[C@@]14C (tested in a mixture with another compound)	11%
O=c1c2ccccc2nc(-c2ccco2)n1-c1nccs1	-1%
CCN(CC)CCO	6%
O=Cc1ccco1	3%
CC(=NC1CCN(Cc2ccccc2)CC1)c1c(O)n(C)c(=O)n(C)c1=O	-2%
C[C@H](Cc1ccc2c(c1)OC(C(=O)O)(C(=O)O)O2)NC[C@H](O)c1cccc(Cl)c1	-8%
CC(C)(C#N)O[C@H]1OC(CO)C(O)C(O)C1O (some centres undefined)	10%
COc1cc2c(cc1O)CCNC2C (centres undefined)	6%
CC(=O)O[C@H]1C[C@@H](O[C@@H]2[C@H](C)O[C@H](O[C@@H]3[C@H](C)O[C@H](O[C@@H]4CC[C@@]5(C)[C@@H](CC[C@]6(C)[C@]5(C)C[C@H](O)[C@]5(C)[C@@H](C7=CC(=O)OC7)CC[C@@]56O)C4)C[C@@H]3O)C[C@@H]2O)O[C@@H](C)[C@H]1O[C@H]1O[C@@H](CO)[C@@H](O)[C@@H](O)[C@@H]1O	3%[25.6 µM]
CN1CC=C(c2c[nH]c3ccccc23)CC1	32µM*
O=C(O)c1nn(Cc2ccc(Cl)c(Cl)c2)c2ccccc12	6%
COc1ccc(CCC(=O)N2CCC3(CC2)OCCO3)cc1	0%
CCCc1[nH]nc2c1C1(C(=O)N(CC(N)=O)c3ccccc31)C(C(=O)OC)=C(N)O2 (centres undefined)	5%
C=C(C)c1cc2cc(C(C)=O)c(O)cc2o1	-4%
CCC(=NCc1ccc(F)cc1)c1c(O)n(C)c(=O)n(C)c1=O	3%
COc1cc2c(cc1OC)[C@@]13CCN4CC5=CCO[C@H](CC(=O)O)[C@@H]([C@H]1N2)[C@H]5C[C@H]43	3%[11.4 µM]
CCCN1CCC[C@@H]2Cc3nc(N)ncc3C[C@H]21	7%
CC[C@]1(C2=NCCN2)Cc2ccccc2O1	-11%&-4%
N#C/C(=C\c1ccc(O)cc1)C(=O)O	-23%
CCC(=NCCO)c1c(O)n(-c2ccccc2)c(=O)[nH]c1=O	-6%
CCOC(=O)c1ccccc1C(=O)OCC	4%&7%
O=C1CN=C(c2cccs2)c2c(sc3c2CCCC3)N1	-16%
c1ccc(N2CC[C@@]3(CCCNC3)C2)cc1	-4%
Cc1ncsc1CCCl	4%
CCc1ccc(C(=O)NN(C(=O)c2cc(C)cc(C)c2)C(C)(C)C)cc1	-3%

4 of the compounds above, with each value named.
> COc1cc2c(cc1O)CCNC2C (centres undefined)
  HSD17B inhib = 6%
> CC(=O)O[C@H]1C[C@@H](O[C@@H]2[C@H](C)O[C@H](O[C@@H]3[C@H](C)O[C@H](O[C@@H]4CC[C@@]5(C)[C@@H](CC[C@]6(C)[C@]5(C)C[C@H](O)[C@]5(C)[C@@H](C7=CC(=O)OC7)CC[C@@]56O)C4)C[C@@H]3O)C[C@@H]2O)O[C@@H](C)[C@H]1O[C@H]1O[C@@H](CO)[C@@H](O)[C@@H](O)[C@@H]1O
  HSD17B inhib = 3%[25.6 µM]
> CN1CC=C(c2c[nH]c3ccccc23)CC1
  HSD17B inhib = 32µM*
> O=C(O)c1nn(Cc2ccc(Cl)c(Cl)c2)c2ccccc12
  HSD17B inhib = 6%

Additional results follow:
SMILES	HSD17B inhib
CC1CC[C@@]2(NC1)OC1CC3C4CC[C@@H]5CC(O)CC[C@@]5(C)C4CC[C@]3(C)C1C2C (some centres undefined)	-7%
ClC(Cl)c1ccccc1	-2%
COc1c2c(cc3c1OCO3)CC[N+](C)=C2	-4%
CN1CCN(c2ncc3ncc(=O)n(C)c3n2)CC1	?
O=C(NC(=O)c1c(F)cccc1F)Nc1ccc(Cl)cc1	-2%
Cc1ncc(CNC(=O)N(CCCl)N=O)c(N)n1	1%&6%
C1CNC2NCCNC2N1 (centres undefined)	9%
O=C(O)Cc1cnc[nH]1	5%
CCC#N	0%
O=C(COc1ccccc1)N1CCN(CC(O)COc2ccccc2)CC1 (centres undefined)	3%
CN1CCc2cc(Cl)c(O)cc2[C@H]2c3ccccc3CC[C@@H]21	11%
O=C1C2(Cl)C3(Cl)C4(Cl)C(Cl)(Cl)C5(Cl)C3(Cl)C1(Cl)C5(Cl)C24Cl (centres undefined)	-16%&-23%
O=C1C2CCCN2C(c2ccc(Cl)cc2)N1c1ccccn1 (centres undefined)	2%
O=P(N[C@@H](c1ccccc1)[C@@H]1C[C@H]1CO)(c1ccccc1)c1ccccc1	10%
CCC/C=N/O	3%
CN1CCc2cc3c(cc2[C@@H]1[C@@H]1OC(=O)c2c1ccc1c2OCO1)OCO3	-9%[25.6 µM]
CCCC/C(C)=C/[C@@H](NP(=O)(c1ccccc1)c1ccccc1)c1ccccc1	7%
c1csc(CN2CC[C@@]3(CCCNC3)C2)n1	-8%
Cc1ccc2c(c1)N(CCC(=O)N1CCC3(CC1)OCCO3)C(=O)C(C)O2 (centres undefined)	0%
CCC(=NCCO)c1c(O)n(C2CCCCC2)c(=O)[nH]c1=O	11%
O=[N+]([O-])c1ccccc1O	1%
O=C(O)C(Br)CBr (centres undefined)	-14%
CCCCOC(=O)C1=C(N)OC2=C(C(=O)CCC2)[C@]12C(=O)Nc1ccccc12	7%
C=CC(=O)NCNC(=O)C=C	-3%
COc1ccc(C2SCC(=O)Nc3c2c(=O)[nH]n3C2CCCCCC2)cc1OC (centres undefined)	2%
CCOc1cccc(N2C(=O)CC(=O)NC2=O)c1	-10%
C=CCN1CC[C@]23c4c5ccc(O)c4O[C@H]2/C(=N/NC(=O)c2ccccc2)CC[C@@]3(O)[C@H]1C5	-6%
CC(C)CC(C)Nc1ccc(Nc2ccccc2)cc1 (centres undefined)	4%
COc1ccc(CN2CCN(Cc3ccccc3)CC2)c(OC)c1	5%
CC(=NCc1cccnc1)c1c(O)n(C2CCCCC2)c(=O)[nH]c1=O	5%
CN1CCc2cc3c(cc2C1C1OC(=O)c2c1ccc1c2OCO1)OCO3 (centres undefined)	-4%
Cc1cc[c]([Sb]2[O][C@H]([C@H](O)[C@H](O)C(=O)O)[C@@H](CO)[O]2)cc1	9%[11.4 µM]
C=C(C)C1Cc2c(ccc3c(=O)c4c(oc23)COc2cc(OC)c(OC)cc2-4)O1 (centres undefined)	6%
C=CCn1c(O)c(C(C)=Nc2cc(OC)ccc2OC)c(=O)[nH]c1=O	-9%
Cn1c(O)c(C=NC2CC(C)(C)NC(C)(C)C2)c(=O)n(C)c1=O	-6%
CCOC(=O)C1C(=O)N(C)C2(C)CC1c1ccccc1O2 (centres undefined)	0%
Cc1onc(-c2ccccc2)c1C(=O)N1CCC2(CC1)OCCO2	5%
CC1(C)C(=O)C=C[C@@]2(C)C1CC(O)[C@]1(C)C2CC[C@@]2(C)C(c3ccoc3)OC(=O)C3O[C@]312 (some centres undefined)	-8%
COC(=O)C1=C(N)Oc2c(c(=O)oc3ccccc23)[C@]12C(=O)N(C)c1ccccc12	15%
Cn1cccc1CN1CCN(C(=O)COc2ccccc2)CC1	2%
COP(=O)(OC)O/C(=C\Cl)c1cc(Cl)c(Cl)cc1Cl	4%
CCC[C@@H]1CC2=CC(=O)CC[C@]2(C)[C@@H]2CC[C@@]3(C)[C@H](CC[C@]3(O)CCC(=O)O)[C@H]12	-2%
ClCc1ccccc1	3%
CCCN(CCC)C(=O)Cc1c(-c2ccc(Cl)cc2)nc2c(Cl)cc(Cl)cn12	-3%
Cc1nnc2n1-c1ccc(Br)cc1C(c1ccccc1Cl)=NC2	8%
COc1ccc(CN2CCCCC2c2cccnc2)cc1C (centres undefined)	3%
CCNc1nc(Cl)nc(NC(C)C)n1	14%
CCSc1cc(C2C(C#N)=C(N)Oc3n[nH]c(C)c32)c(C)o1 (centres undefined)	-3%
CN1C2C=C(N(C(=O)c3ccc(Cl)cc3)c3ccccc3)CC1CC2 (centres undefined)	-9%
O=P(O)(O)Cc1ccccc1OP(=O)(c1ccccc1)c1ccccc1	-6%
CCC(=O)N1CCN(CCN=Cc2c(O)n(C)c(=O)n(C)c2=O)CC1	4%
BrCC(Br)C1CCC(Br)C(Br)C1 (centres undefined)	?
COc1ccc(OC)c(N2C(=O)NC(=O)C(CCc3ccncc3)(CCc3ccncc3)C2=O)c1	7%
O=C(O)CCCOc1ccc(Cl)cc1Cl	7%
CC[C@]1(O)CC(O[C@@H]2CC(N(C)C)C(O)C(C)O2)c2c(cc3c(c2O)C(=O)c2c(O)cccc2C3=O)C1C(=O)OC (some centres undefined)	1%
O=NN(c1ccccc1)c1ccccc1	-2%
COc1ccc(C(=O)OC2C[C@H]3CC[C@@H](C2)N3C)cc1OC (some centres undefined)	2%[25.6 µM]
CCCCCCn1c(=O)c(C(=O)Nc2ccncc2)c(O)c2ccccc21	0%
CCCCN1CCC(C#N)(Nc2ccccc2)CC1	3%
CCOC(=O)C1=C(C)OC(N)=C(C#N)C12C(=O)Nc1ccc(C)cc12 (centres undefined)	2%

Continuation.
SMILES	HSD17B inhib
CN(C)C1C(=O)C(C(N)=O)=C(O)[C@@]2(O)C(=O)C3=C(O)c4c(O)cccc4[C@@](C)(O)C3CC12 (some centres undefined)	-26%
O=C(CCCN1CCC2(CC1)C(=O)N(Cc1cccc(F)c1)CN2c1ccccc1)c1ccc(F)cc1	-13%
CC(C)[C@@H]1CN[C@H](C(=O)O)[C@@H]1CC(=O)O	-15%
COc1ccccc1-n1c(O)c(C=Nc2c(C)n(C)n(-c3ccccc3)c2=O)c(=O)[nH]c1=O	-12%
COc1cc2c(cc1OC)[C@@H]1C(=O)c3ccc(O)c(CC=C(C)C)c3OC1CO2 (some centres undefined)	5%
O=c1[nH]c(=O)n(CCC2=CCCCC2)c(O)c1C=NCc1cccnc1	4%
C=C1C([C@@]2(C)C(OC(C)=O)CC(=O)O[C@@](C)(COC(C)=O)C2CC(=O)OC)C(OC=O)C(OC(=O)C(OC(C)=O)C(C)CC)[C@]2(C)C(c3ccoc3)CC(=O)C12O (some centres undefined)	4%
Cc1cc2c(C(C)C)c(O)c(O)c(C=O)c2c(O)c1-c1c(C)cc2c(C(C)C)c(O)c(O)c(C=O)c2c1O	5µM*
O=C1NC(=O)C(CCc2ccncc2)(c2ccccc2)C(=O)N1	9%
Cc1cc(C)c(C2=NOC(O)(C(F)(F)F)C2)c(=O)[nH]1 (centres undefined)	-9%
